TRPV1 PAM: HTS Assay for Compounds that Act as Potentiators of the Vanilloid Receptor 1; Transient receptor potential cation channel subfamily V member 1 (Homo sapiens), Q8NER1; TRPV1-expressing cells, Fluo-8 calcium influx, capsaicin EC20 potentiation; host cell line not named in the record; control for the full effect not named in the record; potentiation, % at 8.33 µM; 320,000 tested, 0.02% active; active means potentiation above 80%; inconclusive means 30% to 80%; inactive means below 30%; also: 0% is about no effect
Target sequence (Q8NER1 whole entry, looked up): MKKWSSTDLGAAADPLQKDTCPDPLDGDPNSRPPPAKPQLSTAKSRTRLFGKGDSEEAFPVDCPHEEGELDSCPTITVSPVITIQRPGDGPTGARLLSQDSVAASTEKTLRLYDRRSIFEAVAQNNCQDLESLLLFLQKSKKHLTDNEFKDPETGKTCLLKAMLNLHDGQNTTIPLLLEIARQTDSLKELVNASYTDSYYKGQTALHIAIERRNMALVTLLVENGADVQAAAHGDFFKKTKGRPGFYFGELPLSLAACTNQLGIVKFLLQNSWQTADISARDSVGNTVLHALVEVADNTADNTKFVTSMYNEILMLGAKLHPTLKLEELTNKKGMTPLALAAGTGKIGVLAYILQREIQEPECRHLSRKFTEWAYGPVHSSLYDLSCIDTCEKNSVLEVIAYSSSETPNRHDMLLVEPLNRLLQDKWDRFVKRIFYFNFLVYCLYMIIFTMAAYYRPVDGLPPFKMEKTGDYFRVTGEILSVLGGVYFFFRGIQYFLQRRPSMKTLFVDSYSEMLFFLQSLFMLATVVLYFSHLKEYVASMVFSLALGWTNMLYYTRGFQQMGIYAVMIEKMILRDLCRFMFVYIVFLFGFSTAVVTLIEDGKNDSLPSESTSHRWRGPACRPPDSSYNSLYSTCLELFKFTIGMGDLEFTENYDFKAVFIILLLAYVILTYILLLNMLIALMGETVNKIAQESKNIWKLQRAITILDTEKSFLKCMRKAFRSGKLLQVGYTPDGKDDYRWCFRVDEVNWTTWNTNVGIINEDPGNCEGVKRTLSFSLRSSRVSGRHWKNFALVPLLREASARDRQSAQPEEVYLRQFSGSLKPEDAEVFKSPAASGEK
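Fluo-8 calcium influx in TRPV1-expressing cells, kinetic read (ex 480/em 520 nm). Compound added and read 3 min for agonist activity, followed by capsaicin at EC20 final and 2 min further read for enhancement.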
ClpP mod: qHTS Assay for Activators of ClpP; Potency, µM (titrated, usually from 57.5 µM), without a hit: top-dose activity change, negative = active; ATP-dependent Clp protease proteolytic subunit (Bacillus subtilis (strain 168)), P80244; purified B. subtilis ClpP, FRET peptide cleavage, 20 min; 340,000 tested, 1.9% active; active = well fitted falling curve with a large enough effect; inconclusive = small, poorly fitted or top-dose-only effect; inactive = no such curve, though single readings can be large or run the other way; also: potency is read from the fitted curve at half-maximal effect; the source files actives as falling curves though it sought activators and does not explain the sign; nearly all actives have a fitted effect of over 65% in size; many hits overshoot -100%
Target sequence (P80244 whole entry, looked up): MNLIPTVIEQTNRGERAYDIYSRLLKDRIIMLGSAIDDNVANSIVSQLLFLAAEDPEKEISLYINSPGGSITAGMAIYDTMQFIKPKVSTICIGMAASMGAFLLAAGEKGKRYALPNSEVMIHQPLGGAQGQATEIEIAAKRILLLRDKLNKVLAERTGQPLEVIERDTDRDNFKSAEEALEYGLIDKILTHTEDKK
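ClpP 10 microg/mL final, pH 8 Tris/KCl buffer with BSA, glycerol, Tween-20; compound pinned in; FRET-FV substrate; RT 20 min; Ex320/Em430; ΔFRET vs ADEP 5.8 microM, DMSO, no enzyme.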
CtBP-E1A inh: qHTS Assay for Inhibitors of the CtBP/E1A Interaction. AID 651724, 2012. activity change, % (test concentration not listed). AlphaScreen GST-E1A/His-CtBP binding, 1536-well; active compounds read low; control for the full effect not named in the record. 340,000 tested, 0.49% active. CtBP / adenovirus E1A interaction (AlphaScreen); in the data active means activity change below about -65%; inconclusive means about -30% to -65%; inactive means above about -30%; also: % is scaled to controls: 0 for no effect and ±100 for the full control effect
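Homogeneous bead-based format: GST-tagged E1A captured on glutathione donor beads, His-tagged CtBP on nickel acceptor beads; compounds precede bead addition by 2 h at 37 °C.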
Menin MLL FP FL: qHTS Assay for Inhibitors Targeting the Menin-MLL Interaction in MLL Related Leukemias: Competition With Fluorescein Labeled MLL-derived Peptide; Fluorescence polarization, fluorescein-MLL peptide displacement from menin; FP activity change, % at 61.4 µM; 290,000 tested, under 10 active; AID 1766, 2009; inconclusive = falling polarisation curve, or a change in total fluorescence; inactive = total fluorescence flat and polarisation flat or rising; no compound was filed as active; the % refers to the polarisation; negative = inhibition;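 also: % of control where 0% means no effect; inhibitors lower the polarisation; unlabelled MLL peptide was the positive control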
Sfp PPTase inh: qHTS Assay for Inhibitors of Bacillus subtilis Sfp phosphopantetheinyl transferase (PPTase); 4'-phosphopantetheinyl transferase ffp (Bacillus subtilis), Q9F4F7; Biochemical Sfp PPTase activity, qHTS; Potency, µM, inactives show max response, negative = inhibition, usual class: inhibitors; 310,000 tested, 3.5% active; AID 1490, 2009; active = well fitted inhibition curve with a large enough effect; inconclusive = small, poorly fitted or top-dose-only effect, or another doubt; inactive = no such curve, though single readings can be large or run the other way;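 also: the enzyme is Sfp with the accession as filed and its product quenches rhodamine fluorescence; potency is read from the fitted curve at half-maximal effect; 0% = enzyme reaction without inhibitor and -100% = no enzyme wells; top concentration of the series not given in the record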
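With Hepes-Na pH 7.6 buffer containing 10 mM MgCl2, Sfp (15 nM) modified BHQ-2-YbbR (12.5 uM) using rhodamine-CoA (5 uM). Two reads 30 minutes apart at 525/598 nm yielded each well's rate.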
gsp agonist: qHTS for Agonist of gsp, the Etiologic Mutation Responsible for Fibrous Dysplasia/McCune-Albright Syndrome: qHTS; AID 624287, 2012; 340,000 tested, 0.13% active; gsp mutant cells, cAMP HTRF, 30 min; control for the full effect not named in the record; Potency, µM (doses to about 76.9 µM), without a hit: top-dose activation (cAMP increase), most hits filed as activators; active = well fitted activation curve with a large enough effect; inconclusive = small, poorly fitted or top-dose-only effect, or another doubt; inactive = no such curve, though single readings can be large or run the other way; cell line not stated here;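 also: phosphodiesterase inhibitor Ro 20-1724 added with compounds to block cAMP breakdown; potency is read from the fitted curve at half-maximal effect; nearly all actives have a fitted effect of over 60% in size; about a fifth of the inactives were tested at one dose only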
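Cells in DMEM/10% FBS with G418 were pretreated with compounds in DMSO plus […] (300 uM stock) for 30 min at 37C. cAMP was measured by HTRF (cAMP-d2 plus anti-cAMP antibody-K) after 30 min at room temperature.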
gsp antagonist: qHTS for Antagonists of gsp, the Etiologic Mutation Responsible for Fibrous Dysplasia/McCune-Albright Syndrome: qHTS | Potency, µM (top dose mostly 76.9 µM), for the others: at the top dose activity change, negative = inhibition, usual class: inhibitors | gsp-mutant cells, cAMP HTRF, 30 min; control for the full effect not named in the record | AID 624288, 2012 | 340,000 tested, 0.4% active; active = falling curve of any shape with a large fitted effect; inconclusive = falling curve, mostly with a smaller effect; inactive = flat or rising curve; cell line not stated here;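 also: intracellular cAMP measured with PDE inhibitor Ro 20-1724 present during compound exposure; potency is read from the fitted curve at half-maximal effect; % is scaled to controls: 0 for no effect and ±100 for the full control effect; nearly all actives have a fitted effect of over 65% in size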
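HTRF cAMP read-out (cAMP-d2 plus anti-cAMP antibody-K in lysis buffer, 30 min RT). Before lysis, cells are exposed to compounds with […] for 30 min at 37C in DPBS containing Ca/Mg, BSA and Tween 20.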
* marks the source's active call; other numbers are inactive results; ? = inconclusive; . = not tested or not shown; [ ] = remark or other dose. Rows are unselected; about 5.3% have a hit in one of these screens.

The line under a structure holds: TRPV1 PAM, ClpP mod, CtBP-E1A inh, Menin MLL FP FL, Sfp PPTase inh, gsp agonist, gsp antagonist
- Cc1nn(-c2ccccc2)c(C)c1NC(=O)COc1ccc(Br)cc1Cl
→ 26, 1.3%, 15, 2.6, 0%, -2%[15.4 µM], 35µM*
- O=C(N/C(=C\c1ccco1)C(=O)N1CCOCC1)c1ccco1
→ -8, ., 1, ?, 28µM*, -4%[15.4 µM], .
- Cc1cc(C)c2cc(CN(CC3CCCO3)S(=O)(=O)c3ccc4c(c3)OCCO4)c(=O)[nH]c2c1 (configuration not stated)
→ -4, 15%, 51, 3.7, 1%, -67%[inhibitor], -17%
- COc1ccccc1CNCc1cccs1
→ -9, -1.2%, 11, 1.9, 4%, 6%, 7%
- CCOC(=O)C1CCCN(C(=O)CSc2nnc3nc(C)cc(C)n23)C1 (configuration not stated)
→ ., -9.9%, -7, ., ., ?, 5%
- COc1ccc(C(=O)CC(=O)c2ccc(F)cc2)cc1
→ ., 14%, ., ., ., -9%, 1%
- COc1ccccc1NS(=O)(=O)c1cccc(NC(=O)c2cc3ccccc3oc2=O)c1
→ -1, ., ., -0.7, 2%, -28%[15.4 µM], 0%
- COc1ccc(-c2c(C#N)c(SCc3c(C)noc3C)nc3c2C(=O)CC(C)(C)C3)cc1
→ ., -3.2%, 33, 1.4, 6%, -24%, -7%
- O=C(COc1ccc(F)cc1)Nc1nc2c(s1)CCCC2
→ -16, -1.4%, -1, -0.5, -3%, 0%[15.4 µM], -18%
- NC(CSC(c1ccccc1)(c1ccccc1)c1ccccc1)C(=O)O (configuration not stated)
→ ., 1.2%, 4, ., ., -50%[inhibitor], -8%
- Cc1ccc(NC(=O)C(C)OC(=O)/C=C/c2ccccc2)cc1 (configuration not stated)
→ -5, 0.9%, -19, ., 7%, -20%, -30%
- Cc1nc(SCC(=O)NCc2cccs2)nc(C)c1C
→ 10, ., 11, 1.5, 18%, 18%[15.4 µM], .
- COC(=O)/C(=C\Nc1cccc(Cl)c1C)c1ncc(C(F)(F)F)cc1Cl
→ -7, 73%, 2, 2.4, 6%, 2%, 6%
- Cc1ccc(-c2cc(C(=O)NNC(=O)c3csc(N4CCOCC4)n3)c3ccccc3n2)cc1
→ 6, -19%, ., ., ., -6%, -7%
- Cc1ccc(C(=O)Oc2ccc(C(=S)N3CCOCC3)cc2)cc1
→ -21, -1.7%, -15, 7.9, -22%, 5%, 1%
- Cc1cccc(NC(=S)/N=C(\N)Nc2nc(C)c3cc(C)ccc3n2)c1
→ 12, -17%, -19, 2.6, 11%, -65%[inhibitor], 3%
- N/C(=N\OC(=O)CCCN1C(=O)c2ccccc2C1=O)c1ccccn1
→ 4, ., 18, -2.3, -3%, 0%[15.4 µM], -4%
- O=C(Nc1ccc(-c2noc(-c3ccccc3F)n2)cc1)c1cccs1
→ 5, -21%, 12, -2.3, 4%, ?, 1%
- O=C(NCCCN1CCOCC1)c1cc2c(s1)CCCC2
→ 2, 1.5%, 0, 9.2, 5%, -1%, -6%
- O=S(=O)(c1ccc(SCc2ccccc2)nc1)N1CCCCC1
→ 2, -4.9%, -18, ., ., 19%, -11%

Other compounds
The line under a structure holds: TRPV1 PAM, ClpP mod, CtBP-E1A inh, Menin MLL FP FL, Sfp PPTase inh, gsp agonist, gsp antagonist
- Cc1ccc(CNC(=O)CSc2nc(=O)n3ccc(C)cc3n2)cc1
→ ., -14%, -8, ., ., -3%, .
- C=CCNC(=S)/C(=C(/[O-])c1ccc([N+](=O)[O-])cc1)[n+]1ccccc1
→ -6, ., ., 0.4, 4%, 13%[15.4 µM], -1%
- CCc1ccc(OCC(O)CN2CCC(CN3C(=O)c4cccc5cccc(c45)C3=O)CC2)cc1 (configuration not stated)
→ -11, -7.6%, 3, 1.0, 50µM*, -3%, 11%
- O=C(c1cc(-c2ccc(F)cc2)on1)N1CCOCC1
→ -19, ., 11, -3.3, -1%, 3%[15.4 µM], 8%
- COc1ccc(NC(=O)C/C(C)=N/NC(=O)c2cnccn2)cc1
→ -13, ., 1, -0.6, -20%, 26%, -2%
- COc1ccc(NC(=O)CCc2ccc(OC)c(OC)c2)cn1
→ 13, ., 2, -15, 19%, -10%[15.4 µM], 10%
- Cc1nc2c(cc1C(=O)N/N=C/c1ccc(O)c(O)c1)c(=O)n(C)c(=O)n2C
→ 4, -2.3%, ?, -1.8, -22%, ?, 10%
- CCOC(=O)c1ccc(N2CCN(c3cc(C)ccc3C)CC2)c(N)c1
→ 9, ., -13, -6.3, ?, -31%[inhibitor], 12%
- Cc1cc(=O)c2ccc(NC(=O)c3ccccc3)cc2[nH]1
→ ., -3.5%, -5, ., ., 17%, .
- CSc1ncccc1C(=O)Nc1ccc(F)c(F)c1F
→ 3, ., -3, -5.3, 10%, -1%[15.4 µM], 5%
- C[C@H](CO)N1C[C@H](C)[C@H](CN(C)Cc2cncnc2)Oc2cc(Br)ccc2S1(=O)=O
→ ., 2.3%, -19, ., ., -9%, .
- Cc1oc(-c2ccc(C(F)(F)F)cc2)nc1CN(Cc1ccccn1)C[C@@H]1CCC(=O)N1
→ -5, -10%, ., -4.5, -19%, -47%[inhibitor], -1%
- CCOc1ccc(-c2cc(C(=O)NCCCN3CCCC3)c3ccccc3n2)cc1
→ -2, 3.9%, 6, ., -2%, 25%, 21%
- c1ccc(N2CCN(c3ncnc4scc(-c5cccs5)c34)CC2)cc1
→ 1, ?, 4, -1.3, -4%, 6%, -34%
- CC(=O)Nc1ccc(S(=O)(=O)N2CCN(C(=O)N3CCCCC3)CC2)cc1
→ -16, -0.7%, 8, 2.9, 24%, 0%[15.4 µM], 10%
- CCC(=O)OCc1c(C(F)(F)F)nn(C)c1Sc1ccc(F)cc1
→ -7, -0.7%, 6, 3.6, 3%, -21%, -3%
- Cc1cccc(NC(=O)c2ccc(C)c(S(=O)(=O)N3CCOCC3)c2)n1
→ ., -1.0%, -2, ., ., 42%, 3%
- O=C(NCCc1ccccn1)c1ccc(NS(=O)(=O)c2ccc(F)cc2)cc1
→ 17, ., 0, 2.3, 5%, 0%[15.4 µM], -10%
- O=C(c1cccnc1)N1CCN(S(=O)(=O)c2cccc(Cl)c2)CC1
→ 14, 0.8%, 0, ., 27%, 2%[15.4 µM], 11%
- CC(C)CC(=O)Nc1nnc(SCC(=O)NC2CCCCC2)s1
→ 7, -0.7%, 6, ., 1%, 17%, 9%

(further entries)
The line under a structure holds: TRPV1 PAM, ClpP mod, CtBP-E1A inh, Menin MLL FP FL, Sfp PPTase inh, gsp agonist, gsp antagonist
- C=CCSc1nc(C)cc2c1C(=O)OC2
→ -4, ., 6, -1.4, 13%, -15%, -8%
- CC1(C)CC(NC(=O)C(=O)NCCc2ccc(Cl)cc2)CC(C)(C)N1
→ 0, 1.9%, -8, -1.9, 15%, -44%[inhibitor], 4%
- O=C(NC1CCCCC1)c1cc2c(cc1Cl)N1CCCCCC1=NS2(=O)=O
→ 25, ., -2, ., ., -7%[15.4 µM], 5%
- Cc1cccc(NC(=O)Nc2ccccc2[N+](=O)[O-])n1
→ 4, 1.5%, 1, -5.7, 5%, 1%, 3%
- C/C(N)=C(/C#N)C(=O)COC(=O)c1ccc(C)c(S(=O)(=O)N2CCCCC2)c1
→ 7, -4.0%, -7, 6.0, 10%, 15%, -28%
- CCOc1cccc(C(=O)N/N=C/c2coc3ccccc3c2=O)c1
→ 25, 42%, -1, ., 11%, 4%, -16%
- COc1ccc(C(CC(=O)c2ccccc2)C2CCCCC2=O)cc1 (configuration not stated)
→ 4, 1.1%, 20, -1.6, -1%, 11%[15.4 µM], -20%
- Cc1cccc(NC(=O)c2cc(NC(=O)c3ccco3)ccc2N2CCCCC2)c1
→ -42, 18µM*, 5, 2.3, -3%, 4%, 0%
- Cc1cc(C)n2nc(C(=O)N3CCCC(Nc4ccc(F)c(F)c4)C3)cc2n1 (configuration not stated)
→ -20, 0.4%, -3, ., 14%, -9%, 19%
- COc1ccc(NC(=O)COC(=O)c2ccc(NS(=O)(=O)/C=C/c3ccccc3)cc2)cc1
→ -13, -1.0%, 8, 6.6, 23%, 10%[15.4 µM], -15%
- COc1ccc(-c2nnc(SCC(=O)N3CCOCC3)o2)cc1OC
→ 0, -0.5%, 0, 1.3, 11%, -46%[inhibitor], -1%
- CCc1ccc(/C=C2\SC(=S)N(CCC(=O)NC3=NCCS3)C2=O)cc1
→ -1, ., ., ?, -4%, ., .
- O=C(Nc1nc2ccccc2s1)C1=NN(c2ccccc2)C(=O)CC1
→ 6, 0.0%, 0, -0.7, 0%, -8%, -23%
- COc1ccc(NC(=O)COC(=O)c2c(NC(C)=O)sc(C)c2C)cc1
→ ., -13%, -13, ., ., -3%, .
- O=C(NC1=NCCS1)c1cc(-c2ccc(-c3ccccc3)cc2)nc2ccccc12
→ ?, ., 1, 1.7, -5%, -5%[15.4 µM], 15%
- CCCCN(C(=O)CCCc1nc2ccccc2s1)c1c(N)n(CCCC)c(=O)[nH]c1=O
→ 0, 1.1%, 0, ., 7%, 12%[15.4 µM], -2%
- Fc1ccccc1CSc1nnnn1-c1ccc2c(c1)OCO2
→ -12, -9.7%, 26, 5.2, -3%, 10%, -11%
- Cc1cc(C)cc(Nc2ccc(C(=O)O)cc2N)c1
→ -19, 28µM*, -1, -0.9, -11%, 45%, -18%
- Cn1c2ccccc2c2cnn(CC(=O)Nc3cccc(F)c3)c(=O)c21
→ -3, ., -1, 2.8, ?, -3%[15.4 µM], -2%
- CCOC(=O)N1CCN(C(=O)CCc2cc(OC)c(OC)c(OC)c2)CC1
→ 20, -1.1%, 1, ., 23%, -3%, 12%
